High-throughput results deposited in PubChem by Broad Institute.
Env fusion inh – inhibitors of HIV-1 Env-driven cell-cell fusion, primary screen, HeLa-JRFL effector, CEM21 target cells, luciferase; inhibition, % at 12.3 µM; 360,000 tested, 1.1% active;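 active = mean replicate inhibition score of at least 50 and every replicate individually at or above 50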;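 also: 0% = plate neutral controls and 100% = maraviroc near 300 nM; one replicate is shown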
UUG fidelity – modulators of yeast start codon fidelity, primary screen, whole organism, S. cerevisiae, single point, plate reader. S. cerevisiae UUG-firefly luciferase reporter, luminescence/redox ratio. activity score, % at 18.7 µM. 350,000 tested, 0.13% active. AID 602363, 2012;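 active = replicate mean at a twofold rise or more, about +100% in these data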;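 also: firefly luciferase made from a UUG start codon reports start codon fidelity; reporter light over untreated wells divided by growth signal over untreated wells; some hits fall short of that in this replicate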
The depositor's hits bear a star; [ ] = remark or other dose. Only part of the results is shown, so the mix of outcomes need not match the whole.

C[C@H]1CN([C@@H](C)CO)S(=O)(=O)c2ccc(-c3cccnc3)cc2O[C@H]1CN(C)C(=O)CC1CC1 was read as Env fusion inh -43.2[16.7 µM] and UUG fidelity -7.0.
`Cc1noc(C)c1S(=O)(=O)Nc1ccc2c(c1)C(=O)N([C@@H](C)CO)C[C@@H](C)[C@H](CN(C)S(=O)(=O)c1cn(C)cn1)OCCCC[C@@H](C)O2` gave Env fusion inh -1.1[16.7 µM] and UUG fidelity -0.2.
Screening COc1ccc(CN(C)C[C@@H]2OCCCC[C@@H](C)Oc3ccc(NC(=O)NC4CCCCC4)cc3C(=O)N([C@@H](C)CO)C[C@@H]2C)cc1 returned Env fusion inh 6.7[16.7 µM] and UUG fidelity 47.7.
Screening Cc1noc(C)c1NC(=O)Nc1cccc2c1O[C@@H](CN(C)Cc1ccc(C(F)(F)F)cc1)[C@@H](C)CN([C@@H](C)CO)C2=O returned Env fusion inh -13.6[16.7 µM] and UUG fidelity -8.7.
For C[C@@H]1CN([C@@H](C)CO)C(=O)c2cc(NC(=O)Nc3ccc(C(F)(F)F)cc3)ccc2O[C@@H](C)CCCCO[C@@H]1CN(C)S(=O)(=O)c1ccc(F)cc1 the results were Env fusion inh -22.6[16.7 µM] and UUG fidelity -6.9.
Screening O=C(C[C@@H]1C[C@@H]2c3cc(NS(=O)(=O)c4ccc(F)cc4)ccc3O[C@@H]2[C@H](CO)O1)NCc1ccccc1 returned Env fusion inh -4.9[16.7 µM] and UUG fidelity -5.5.
Screening COc1ccccc1CN1C[C@H](C)[C@@H](OC)CN(C)C(=O)c2ccc(NC(C)=O)cc2OC[C@H]1C returned Env fusion inh 6.8[16.7 µM] and UUG fidelity -2.5.
`C[C@H]1CN([C@@H](C)CO)C(=O)Cc2cc(NC(=O)Nc3ccc(C(F)(F)F)cc3)ccc2O[C@@H]1CN(C)Cc1ccc(-c2ccccc2)cc1` gave Env fusion inh -4.5[16.7 µM] and UUG fidelity 3.6.
For COc1ccc(S(=O)(=O)Nc2ccc3c(c2)C(=O)N([C@H](C)CO)C[C@@H](C)[C@@H](CN(C)S(=O)(=O)c2ccc(Cl)cc2)OCCCC[C@@H](C)O3)cc1 the results were Env fusion inh 2.1[16.7 µM] and UUG fidelity 2.7.
`C[C@@H]1CN([C@@H](C)CO)C(=O)c2cc(Br)cnc2O[C@H]1CN(C)C(=O)C1CCOCC1` gave Env fusion inh -6.3[16.7 µM] and UUG fidelity 2.0.
For N#C[C@@H]1[C@H](c2ccc(C3=CCCC3)cc2)[C@@H](CO)N1C(=O)C1CCCC1 the results were Env fusion inh 20.9[16.7 µM] and UUG fidelity 14.4.
`COc1ccc(NC(=O)Nc2ccc3c(c2)C(=O)N([C@H](C)CO)C[C@@H](C)[C@H](CN(C)C(=O)c2ccccc2)OCCCC[C@@H](C)O3)cc1` gave Env fusion inh -4.2[16.7 µM] and UUG fidelity 2.1.

Grouped by structure, the entries above containing a CF3 group (3)
Screening Cc1noc(C)c1NC(=O)Nc1cccc2c1O[C@@H](CN(C)Cc1ccc(C(F)(F)F)cc1)[C@@H](C)CN([C@@H](C)CO)C2=O returned Env fusion inh -13.6[16.7 µM] and UUG fidelity -8.7.
For C[C@@H]1CN([C@@H](C)CO)C(=O)c2cc(NC(=O)Nc3ccc(C(F)(F)F)cc3)ccc2O[C@@H](C)CCCCO[C@@H]1CN(C)S(=O)(=O)c1ccc(F)cc1 the results were Env fusion inh -22.6[16.7 µM] and UUG fidelity -6.9.
`C[C@H]1CN([C@@H](C)CO)C(=O)Cc2cc(NC(=O)Nc3ccc(C(F)(F)F)cc3)ccc2O[C@@H]1CN(C)Cc1ccc(-c2ccccc2)cc1` gave Env fusion inh -4.5[16.7 µM] and UUG fidelity 3.6.

The list continues.
`C[C@H]1CN([C@@H](C)CO)C(=O)Cc2cc(NC(=O)NC3CCCCC3)ccc2O[C@@H]1CN(C)C(=O)Nc1ccccc1` gave Env fusion inh -8.7[16.7 µM] and UUG fidelity -5.2.
C[C@H]1CN([C@@H](C)CO)C(=O)c2cc(C3=CCCCC3)cnc2O[C@@H]1CN(C)CC1CCOCC1 was read as Env fusion inh 20.9[16.7 µM] and UUG fidelity -2.8.
Screening C[C@@H]1CN([C@@H](C)CO)C(=O)Cc2cc(NC(=O)Cc3cn(C)c4ccccc34)ccc2O[C@H]1CN(C)Cc1ccccc1 returned Env fusion inh -3.1[16.7 µM] and UUG fidelity -0.6.
For C[C@@H]1CN([C@H](C)CO)C(=O)c2cc(N(C)C)ccc2O[C@@H](C)CCCCO[C@H]1CN(C)S(=O)(=O)c1cn(C)cn1 the results were Env fusion inh -6.3[16.7 µM] and UUG fidelity -10.2.
`C/C=C/c1ccc2c(c1)O[C@@H](CN(C)C(=O)Nc1cc(F)ccc1F)[C@@H](C)CN([C@@H](C)CO)S2(=O)=O` gave Env fusion inh 11.9[16.7 µM] and UUG fidelity -10.1.
For C[C@@H]1CN([C@H](C)CO)C(=O)c2cc(NC(=O)c3ccncc3)ccc2O[C@H]1CN(C)Cc1ccc(C(F)(F)F)cc1 the results were Env fusion inh 23.7[16.7 µM] and UUG fidelity -16.4.
`Cc1noc(C)c1S(=O)(=O)N(C)C[C@@H]1Oc2ccc(NS(=O)(=O)c3cccs3)cc2CC(=O)N([C@H](C)CO)C[C@H]1C` gave Env fusion inh -11.0[16.7 µM] and UUG fidelity 5.0.
For COc1ccccc1NC(=O)N(C)C[C@@H]1Oc2ncc(Br)cc2C(=O)N([C@@H](C)CO)C[C@H]1C the results were Env fusion inh -0.3[16.7 µM] and UUG fidelity -9.2.
`COc1ccc(NC(=O)Nc2ccc3c(c2)C(=O)N([C@@H](C)CO)C[C@@H](C)[C@@H](CN(C)Cc2ccc(C(F)(F)F)cc2)OCCCC[C@@H](C)O3)cc1` gave Env fusion inh 27.6[16.7 µM] and UUG fidelity -9.1.
C[C@H](CO)N1C[C@H](C)[C@@H](CN(C)S(=O)(=O)c2cn(C)cn2)OCCCC[C@H](C)Oc2ccc(NC(=O)C3CCCCC3)cc2C1=O was read as Env fusion inh -8.4[16.7 µM] and UUG fidelity 2.8.
`Cc1noc(C)c1NC(=O)N(C)C[C@H]1Oc2ccc(NC(=O)Cn3cnnn3)cc2CC(=O)N([C@@H](C)CO)C[C@@H]1C` gave Env fusion inh 0.1[16.7 µM] and UUG fidelity -15.2.
`Cc1ccc(S(=O)(=O)N(C)C[C@H]2Oc3ncc(-c4ccncc4)cc3C(=O)N([C@H](C)CO)C[C@@H]2C)cc1` gave Env fusion inh 11.3[16.7 µM] and UUG fidelity 5.2.
For C[C@@H]1CN([C@H](C)CO)C(=O)c2cc(NC(=O)c3ccccc3)ccc2O[C@@H](C)CCCCO[C@H]1CN(C)S(=O)(=O)c1ccc(F)cc1 the results were Env fusion inh 8.6[16.7 µM] and UUG fidelity 10.2.
`CCS(=O)(=O)N[C@@H]1C=C[C@H](CC(=O)Nc2ccc(-c3ccccc3)cc2)O[C@@H]1CO` gave Env fusion inh 4.6[16.7 µM] and UUG fidelity -0.6.
Screening Cc1ccc(S(=O)(=O)N[C@@H]2C=C[C@@H](CC(=O)NCc3ccc(Cl)c(Cl)c3)O[C@H]2CO)cc1 returned Env fusion inh -9.6[16.7 µM] and UUG fidelity -12.7.
For C[C@H]1CN([C@@H](C)CO)C(=O)c2cc(NS(=O)(=O)c3ccccc3)ccc2O[C@H]1CN(C)Cc1ccc2c(c1)OCO2 the results were Env fusion inh 27.4[16.7 µM] and UUG fidelity 6.6.
C[C@H](CO)N1C[C@H](C)[C@H](CN(C)Cc2ccccn2)Oc2ncc(C#CCC3CCCC3)cc2C1=O was read as Env fusion inh 0.4[16.7 µM] and UUG fidelity -4.9.
COc1ccc(-c2ccc3c(c2)O[C@@H](CN(C)C(=O)Nc2ccccc2F)[C@@H](C)CN([C@H](C)CO)S3(=O)=O)cc1 was read as Env fusion inh -25.0[16.7 µM] and UUG fidelity -15.3.
`CCC(=O)Nc1ccc2c(c1)OC[C@H](C)N(CCC(F)(F)F)C[C@H](C)[C@H](OC)CN(C)C2=O` gave Env fusion inh -1.0[16.7 µM] and UUG fidelity 1.1.
CC(C)NC(=O)N(C)C[C@H]1Oc2c(NC(=O)Nc3cccc4ccccc34)cccc2C(=O)N([C@@H](C)CO)C[C@@H]1C was read as Env fusion inh 19.4[16.7 µM] and UUG fidelity 5.9.
COc1cccc(C#Cc2cnc3c(c2)C(=O)N([C@H](C)CO)C[C@H](C)[C@H](CN(C)C)O3)c1 was read as Env fusion inh 9.5[16.7 µM] and UUG fidelity -4.1.
Screening COCCNC(=O)C[C@H]1C[C@@H]2c3cc(NS(C)(=O)=O)ccc3O[C@@H]2[C@H](CO)O1 returned Env fusion inh 21.7[16.7 µM] and UUG fidelity 1.6.
C[C@@H]1CN([C@H](C)CO)C(=O)c2cccc(NC(=O)C3CC3)c2O[C@@H]1CN(C)Cc1ccc(Cl)c(Cl)c1 was read as Env fusion inh -29.9[16.7 µM] and UUG fidelity -3.1.
`O=C(O)C[C@@H]1C[C@@H]2c3cc(NC(=O)CC4CC4)ccc3O[C@@H]2[C@@H](CO)O1` gave Env fusion inh -12.8[16.7 µM] and UUG fidelity 49.8*.
Screening Cc1noc(C)c1NC(=O)Nc1ccc2c(c1)C(=O)N([C@@H](C)CO)C[C@@H](C)[C@H](CN(C)CC1CCCCC1)O2 returned Env fusion inh -2.7[16.7 µM] and UUG fidelity -8.3.
For COc1ccc(CN(C)C[C@H]2OCCCC[C@@H](C)Oc3ccc(N(C)C)cc3C(=O)N([C@H](C)CO)C[C@@H]2C)cc1 the results were Env fusion inh -14.6[16.7 µM] and UUG fidelity 3.7.
CC(C)CC#Cc1ccc2c(c1)O[C@@H](CN(C)C(=O)Nc1ccccc1F)[C@H](C)CN([C@H](C)CO)S2(=O)=O was read as Env fusion inh 22.2[16.7 µM] and UUG fidelity -1.2.
For C[C@@H]1CN([C@H](C)CO)C(=O)Cc2cc(NC(=O)Cn3cnnn3)ccc2O[C@H]1CN(C)S(=O)(=O)c1cn(C)cn1 the results were Env fusion inh -30.8[16.7 µM] and UUG fidelity -10.6.
C[C@@H]1CN([C@@H](C)CO)C(=O)Cc2cc(NS(C)(=O)=O)ccc2O[C@H]1CN(C)S(=O)(=O)c1cccs1 was read as Env fusion inh -1.5[16.7 µM] and UUG fidelity -16.7.
For C/C=C/c1cnc2c(c1)C(=O)N([C@@H](C)CO)C[C@H](C)[C@H](CN(C)Cc1cncnc1)O2 the results were Env fusion inh -4.6[16.7 µM] and UUG fidelity -4.3.
Screening CN(C)CC(=O)Nc1ccc2c(c1)[C@@H]1C[C@H](CC(=O)NCc3ccccc3F)O[C@@H](CO)[C@@H]1O2 returned Env fusion inh 32.7[16.7 µM] and UUG fidelity -9.0.
For COc1ccc(NC(=O)N[C@@H]2CC[C@@H](CCNC(=O)c3ccccc3F)O[C@H]2CO)cc1 the results were Env fusion inh -7.9[16.7 µM] and UUG fidelity -8.5.
C[C@H](CO)N1C[C@H](C)[C@H](CN(C)C(=O)CCCN(C)C)OCc2cnnn2CCCC1=O was read as Env fusion inh 3.0[16.7 µM] and UUG fidelity -5.9.
Screening C[C@@H]1CCCCO[C@@H](CN(C)C(=O)C2CCCCC2)[C@H](C)CN([C@@H](C)CO)C(=O)c2cc(NS(=O)(=O)c3ccccc3)ccc2O1 returned Env fusion inh -42.8[16.7 µM] and UUG fidelity 11.5.
Cc1noc(C)c1S(=O)(=O)N(C)C[C@@H]1OCCCC[C@H](C)Oc2ccc(NS(=O)(=O)c3cccs3)cc2C(=O)N([C@@H](C)CO)C[C@H]1C was read as Env fusion inh -22.8[16.7 µM] and UUG fidelity 10.5.
For C[C@H]1CN([C@@H](C)CO)C(=O)c2cccc(NC(=O)Nc3ccc(C(F)(F)F)cc3)c2O[C@H]1CN(C)C(=O)Nc1cccc2ccccc12 the results were Env fusion inh 14.9[16.7 µM] and UUG fidelity 2.2.
`CCCN(C)C[C@@H]1Oc2cc(C#CC(C)C)ccc2S(=O)(=O)N([C@@H](C)CO)C[C@H]1C` gave Env fusion inh -16.1[16.7 µM] and UUG fidelity 12.7.
`C[C@@H]1CN([C@H](C)CO)C(=O)c2cccc(NC(=O)c3ccc(-c4nccs4)cc3)c2O[C@@H]1CN(C)Cc1ccccc1` gave Env fusion inh -5.7[16.7 µM] and UUG fidelity -10.9.
For Cc1noc(C)c1S(=O)(=O)Nc1ccc2c(c1)C(=O)N([C@@H](C)CO)C[C@@H](C)[C@@H](CN(C)C(=O)Nc1ccccc1)O2 the results were Env fusion inh -36.0[16.7 µM] and UUG fidelity 0.7.
`Cc1ccc(S(=O)(=O)Nc2ccc3c(c2)CC(=O)N([C@@H](C)CO)C[C@H](C)[C@@H](CN(C)C(=O)Nc2ccc(C(F)(F)F)cc2)O3)cc1` gave Env fusion inh 17.3[16.7 µM] and UUG fidelity 5.7.
For C/C=C/c1ccc2c(c1)O[C@@H](CN(C)C(=O)CN1CCOCC1)[C@H](C)CN([C@@H](C)CO)S2(=O)=O the results were Env fusion inh -8.5[16.7 µM] and UUG fidelity 10.8.
`C[C@H](CO)N1C[C@H](C)[C@@H](CN(C)Cc2ccc(C(=O)O)cc2)Oc2ccc(N(C)C)cc2CC1=O` gave Env fusion inh 3.0[16.7 µM] and UUG fidelity -6.2.
`O=C(CCN1CCCCC1)N[C@H]1CC[C@H](CCn2cc(-c3ccc(F)cc3)nn2)O[C@@H]1CO` gave Env fusion inh -3.9[16.7 µM] and UUG fidelity -0.8.
COc1ccc(NC(=O)Nc2cccc3c2O[C@H](CN(C)C(=O)NC(C)C)[C@H](C)CN([C@@H](C)CO)C3=O)cc1 was read as Env fusion inh -5.1[16.7 µM] and UUG fidelity 13.4.
`COc1ccc(C#Cc2ccc3c(c2)O[C@@H](CN(C)C(=O)NC2CCCCC2)[C@@H](C)CN([C@@H](C)CO)S3(=O)=O)cc1` gave Env fusion inh 25.9[16.7 µM] and UUG fidelity -19.3.
